# MgrA DNA FP = S. aureus MgrA-DNA binding modulation; inhibition, %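 (about 10 µg/mL by stock and volumes)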; 84,000 compounds, 0.13% hits; fluorescence polarization;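 active means above 50% in either of two replicates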;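 further: 0% = protein plus DNA without compound and 100% = DNA alone without protein; higher means less MgrA bound to DNA so lower polarization; one replicate is shown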
# S aureus helic = S. aureus DNA helicase inhibition; purified S. aureus helicase, fluorescence unwinding assay; about half of the hits fall short of the stated cut; inhibition, %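 (tested at about 80 µM)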; 120,000 compounds, 0.05% hits; AID 485395;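 active means both duplicates at 50% or more, or one of them with a favoured structure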;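 further: 0% = mean of negative control wells and 100% = mean of positive control wells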
# Numbers without * were called inactive; . = not tested or not shown; & = joins results of further samples. This is a subset; count on the stated rates, not on these rows.
# Values run as follows: MgrA DNA FP | S aureus helic
1) CCOC(=O)c1cc(C#N)c(SCC(=O)c2cc3ccccc3oc2=O)[nH]c1=O
→ . | -271.0
2) CC1CC(=O)C2=C(C1)Nc1ncnn1C2c1cc(F)cc(F)c1 (stereo unspecified)
→ 7.2 | -7.0
3) CCOc1ccc(NC(=O)c2cc(=O)[nH]c3ccccc23)cc1
→ -1.5&-1.8 | -15.0&-17.0
4) O=C(NN1C(=O)CSC1=S)c1ccccc1
→ 3.8 | 6.0
5) O=C(Nc1ccccc1)n1nccc1-c1sccc1Cl
→ 1.2 | .
6) O=C(O)CSCC(=O)Nc1ccc(Br)c(C(F)(F)F)c1
→ -0.7 | .
7) O=C(CCSCc1ccccc1F)N1CCN(c2cccc(Cl)c2)CC1
→ . | 8.0
8) CCCn1c(=O)c2sccc2n2c(CCCC(=O)Nc3ccccc3)nnc12
→ . | -23.0
9) CCN(CC)c1ccc2cc(-c3nnc(-c4ccccc4)o3)c(=O)oc2c1
→ 0.0 | .
10) CC12CCC(=O)N1C(C(=O)O)Cc1c2[nH]c2ccccc12 (stereo unspecified)
→ . | -1.0
11) Cc1ccc2c(c1)N(CC(=O)N1CCOCC1)C(=O)c1cccnc1O2
→ 0.6 | -12.0
12) CN(Cc1ccc(Cl)s1)Cn1c(=O)oc2ccccc21
→ . | 4.0
13) CC(=O)OC1c2ccccc2NC(c2ccccc2)C1(C)C (stereo unspecified)
→ 4.4 | 4.0
14) O=C(O)CC(C(=O)NCc1ccccc1)C1CCCO1 (stereo unspecified)
→ -8.6 | 9.0
15) O=C1Cc2ccccc2C(=O)N1n1cnnc1
→ 0.9 | -1.0

# (continued)
# Values run as follows: MgrA DNA FP | S aureus helic
16) O=C(Nc1ccccc1NS(=O)(=O)c1ccc(F)cc1)C1CCC1
→ 2.5 | -18.0
17) Cn1cc(S(=O)(=O)Cc2ccc(Br)cc2)c2ccccc21
→ . | 10.0
18) CC1=C(C#N)c2nc(N)c(C#N)c(C)c2/C1=C/c1ccc(-c2ccccc2[N+](=O)[O-])o1
→ -0.7 | .
19) O=C(Cc1coc2cc(O)ccc12)OCC(=O)N1CCCC1=O
→ . | 9.0
20) Cn1c(Cc2nc(-c3cnccn3)no2)nnc1SCc1ccccc1
→ . | -19.0
21) COC(=O)CN(Cc1ccccc1)S(=O)(=O)c1ccc2c(c1)OCCO2
→ -3.3 | -3.0
22) COc1ccc(Cn2ccn(CC(N)=O)c(=O)c2=O)cc1
→ . | 17.0
23) O=C(Nc1cccc(C(F)(F)F)c1)C1COc2ccccc2O1 (stereo unspecified)
→ 0.3 | .
24) Cc1[nH]n(C)c(=O)c1N=Nc1ccc(F)cc1
→ 1.1 | .
25) N#Cc1ccc(-n2cccc2)nc1
→ 0.1 | .
26) CSc1nc2c(c(=O)[nH]1)C(c1ccccc1)C1=C(CC(C)(C)CC1=O)N2 (stereo unspecified)
→ . | 12.0
27) Cc1[nH]c(=O)[nH]c(=O)c1/C=N/NC(N)=O
→ . | -34.0
28) CN1CCN(S(=O)(=O)c2cccc3ccccc23)CC1
→ . | 14.0
29) Cc1cc(C)c(NC(=O)CCCN2CCN(C)CC2)c(C)c1
→ . | -3.0
30) CCOC(=O)c1cc(/C(C)=N/NS(=O)(=O)c2cc(C(F)(F)F)cc(C(F)(F)F)c2)on1
→ . | 8.0

# New compounds follow
# Values run as follows: MgrA DNA FP | S aureus helic
31) NC(=O)Cn1c(NCc2ccccc2)nc2ccccc21
→ . | 0.0
32) Cc1c(C(=O)n2cnc3ccccc32)oc2ccccc12
→ . | -6.0
33) C#CC(OC(=O)c1ccccc1C(=O)O)c1ccccc1 (stereo unspecified)
→ 1.4 | -12.0
34) CCOC(=O)COc1ccc2c(c1)[nH]c1ccccc12
→ . | -13.0
35) c1c2c(nc3c1CCCC3)CCCC2
→ . | -48.0
36) CC(C(=O)Nc1cc(Cl)c(Cl)cc1Cl)N(C)C (stereo unspecified)
→ . | 12.0
37) CCOc1ccc(N=Cc2c[nH]c3ccc(Br)cc23)cc1
→ 2.2 | -26.0
38) CCOC(=O)c1sc(S(C)(=O)=O)c2c1CC(C)(C)C/C2=N/O
→ -1.6 | .
39) O=C(Nc1ccccc1N1CCOCC1)c1cc2ccccc2oc1=O
→ -2.0 | .
40) NC(=O)CSc1nc2ccccc2c(=O)n1-c1cccc(Cl)c1
→ . | -10.0
41) CSc1nc2c(cnn2-c2ccccc2)c(=O)[nH]1
→ . | 12.0
42) Cc1cccc(N(C)Cc2nnc(-c3ccc4c(c3)OCO4)o2)c1
→ . | -24.0
43) COc1ccc(OC)c(NC(=O)COC(=O)c2ccc(S(=O)(=O)N3CCOCC3)cc2)c1
→ . | 12.0
44) COc1cccc2c1N=C1OC=CC1C2OC (stereo unspecified)
→ -2.1 | 9.0
45) CC(=O)OC1CCN(c2ncc(C(F)(F)F)cc2Cl)CC1
→ 0.8 | .

# 3 compounds drawn at random from those above, as already listed:
# Values run as follows: MgrA DNA FP | S aureus helic
32) Cc1c(C(=O)n2cnc3ccccc32)oc2ccccc12
→ . | -6.0
37) CCOc1ccc(N=Cc2c[nH]c3ccc(Br)cc23)cc1
→ 2.2 | -26.0
41) CSc1nc2c(cnn2-c2ccccc2)c(=O)[nH]1
→ . | 12.0

# Additional entries follow:
# Values run as follows: MgrA DNA FP | S aureus helic
46) Brc1ccccc1Cn1cnc2ccccc21
→ 2.8 | -2.0
47) O=C(NCCSCc1ccco1)C1CC1
→ -4.3 | .
48) CCOC(=O)c1oc2ccc(Br)cc2c1CSc1nnc(-c2ccc(OC)cc2)o1
→ . | -22.0
49) O=C1C2C3C=CC(C3)C2C(=O)N1C1CC2CCC1C2 (stereo unspecified)
→ -1.2 | 3.0
50) CCOc1ccc(NC(=O)/C=N/O)cc1
→ 1.7 | .
51) CC(=O)N1N=C(N)SC12CCCC2
→ 0.4 | 10.0
52) O=C(O)CC1(CC(=O)Nc2cccc3cnccc23)CCCC1
→ 3.0 | -12.0
53) C[n+]1ccc(/C=C/c2ccccc2O)c2ccccc21
→ -0.9 | 50.0*
54) C=CCNC(=O)Cc1csc(-c2ccccc2)n1
→ . | -32.0
55) Nc1nc2cc(S(=O)(=O)NC3=NCCCCC3)ccc2s1
→ . | 4.0
56) Cc1nc2ccccn2c1C(=O)NN=C1CCCC1
→ . | 24.0
57) CCOC(=O)c1sc(N2CCCCC2)c2c1CC(C)(C)CC2=O
→ 4.5 | .
58) Cc1cc(=O)oc2cc(OCC(=O)N3CCc4ccccc43)ccc12
→ 2.0 | 12.0
59) CCN(CC)Cc1cccn1-c1nnc(N2CCCCCC2)s1
→ . | 12.0
60) Nc1cc(=O)[nH]c(SCCSc2ccccc2)n1
→ 2.7 | 11.0

# Later entries:
# Values run as follows: MgrA DNA FP | S aureus helic
61) FC(F)(F)c1nnc2sc(-c3cnccn3)nn12
→ . | -24.0
62) COc1ccc(-c2nc3ncccc3o2)cc1NC(=O)C(C)Oc1ccc(Cl)cc1Cl (stereo unspecified)
→ -4.6 | -2.0
63) CC(=O)Nc1ccc(S(=O)(=O)n2c(N)c(C#N)c3nc4ccccc4nc32)cc1
→ . | 4.0
64) Cn1c(=O)c2c(ncn2CC(=O)NC2CCSC2=O)n(C)c1=O (stereo unspecified)
→ . | 13.0
65) Fc1cccc(Cl)c1CNCc1c(F)cccc1Cl
→ 3.1 | .
66) CCCN(CCC)C(=O)C[n+]1cccc(/C=N/O)c1
→ . | -1.0
67) OCCCc1nc2ccccc2n1Cc1ccccc1Cl
→ . | -1.0
68) COc1cccc(C(=O)COC(=O)C(C)N2C(=O)C3C4C=CC(C4)C3C2=O)c1 (stereo unspecified)
→ . | -27.0
69) CCSc1nnc(Cn2c(=O)sc3ccccc32)n1CCc1ccccc1
→ . | 9.0
70) C/C(=N\NC(=O)C1CC1)c1ccc(S(=O)(=O)N2CCCC2)cc1
→ . | 9.0
71) NC(=O)CC(=O)NC12CC3CC(CC(C3)C1)C2
→ 0.0 | 21.0
72) Nc1cc(Cc2cc(N)cc(C(F)(F)F)c2)cc(C(F)(F)F)c1
→ -0.3 | .
73) Nc1n(N)c2ccccc2[n+]1CC(=O)c1ccccc1
→ 0.5 | -12.0
74) N#C/C(=C(/O)Cn1nc(C(=O)O)c2ccccc2c1=O)c1nc2ccccc2s1
→ . | -32.0
75) c1nc(N2CCC2)c2ccsc2n1
→ . | 8.0

# (cont.)
# Values run as follows: MgrA DNA FP | S aureus helic
76) O=C1NC2(CCN(C(=O)Nc3ccccc3)CC2)Oc2ccccc21
→ . | 9.0
77) NS(=O)(=O)c1ccc(C(=O)Nc2ccc(-c3cn4c(n3)SCC4)cc2)cc1
→ . | -8.0
78) O=C1NS(=O)(=O)c2ccccc21
→ 0.1 | .
79) CCN(CC)c1ccc2cc(C(=O)NC(C)=O)c(=Nc3ccc(C(C)=O)cc3)oc2c1
→ 1.9 | .
80) Cc1cc(C)c(C(=O)C/C(=N/O)C(F)(F)F)c(=O)[nH]1
→ 0.4 | -16.0
81) Cc1ccc(-n2nnc(C(=O)NCC3CCCO3)c2N)c(C)c1 (stereo unspecified)
→ -1.8 | 1.0
82) N#Cc1ccc(NC(=O)c2ccc(OC(F)(F)F)cc2)cc1
→ -1.5 | .
83) CC(O)Cn1cnc2c1c(=O)n(C)c(=O)n2C (stereo unspecified)
→ 3.6 | .
84) CCOC(=O)c1oc2ccccc2c1CSc1nnc(Cc2cccs2)n1CCc1ccccc1
→ . | 32.0
85) Cc1c(C(=O)OC(C)C(=O)N(C)Cc2ccccc2)oc2ccccc12 (stereo unspecified)
→ . | 6.0
86) CN1c2ccccc2C(=O)/C(=N\Nc2ccccc2F)S1(=O)=O
→ -0.6 | .
87) O=S(=O)(NC1CC1)c1ccc2c(c1)OCCO2
→ 5.2 | 9.0
88) Cc1ccc(C2=NN(C(=O)CCC(=O)O)C(c3cn(-c4ccccc4)nc3-c3ccc(C)cc3)C2)cc1 (stereo unspecified)
→ 2.7 | 9.0
89) O=C(CN1CCCCCC1)NCc1ccccc1
→ 0.9 | 9.0
90) COc1ccc(C(=O)Nc2nnc(-c3ccccc3C)s2)cc1OC
→ . | 22.0

# Following part:
# Values run as follows: MgrA DNA FP | S aureus helic
91) Clc1cc(Cl)cc(-c2nnc(N3CCCC3)o2)c1
→ -1.8 | .
92) CCn1c2ccccc2c2nnc(SCC(=O)N3CCCc4ccccc43)nc21
→ . | 10.0
93) CC(C)(C)c1ccc(C(=O)O/N=C/c2ccc3c(c2)OCO3)cc1
→ 2.2 | .
94) CC(=O)N1C=CN(C(C)=O)C(c2cn(C)c3ccccc23)C1c1cn(C)c2ccccc12 (stereo unspecified)
→ -0.7 | 7.0
95) O=C(CC1=NS(=O)(=O)c2ccccc2N1)N1CCN(c2ccccc2)CC1
→ . | -21.0
96) CN1C(=O)C(S(=O)(=O)c2ccccc2)C2CC1(C)Oc1ccccc12 (stereo unspecified)
→ . | -9.0
97) O=C(O)C1CC(=O)N(Cc2ccc(F)cc2)C1 (stereo unspecified)
→ -4.9 | 3.0
98) CCOC(=O)c1cc(C(O)(C(F)(F)F)C(F)(F)F)c(/N=C/N(C)C)o1
→ . | 8.0
99) CC(C)(C)C(=O)COC(=O)c1ccccc1C(=O)c1ccccc1
→ -0.5 | 3.0
100) CCS(=O)(=O)N1CCc2cc(C(=O)COC(=O)c3ccc(-n4cnnn4)cc3)ccc21
→ . | 0.0
101) CC(O)(CS(=O)(=O)c1ccc(Cl)cc1)CS(=O)(=O)c1ccc(Cl)cc1
→ -0.3 | .
102) Cc1c(N=C2SCC(=O)N2c2c(C)n(C)n(-c3ccccc3)c2=O)c(=O)n(-c2ccccc2)n1C
→ . | -15.0
103) CCNC(=S)N1CCn2cccc2C1c1cccs1 (stereo unspecified)
→ . | 6.0
104) Fc1ccc(-c2noc(-c3ccc4c(c3)CCO4)n2)cc1
→ . | -8.0
105) CCC1(C)Cc2sc3c(=O)[nH]c(=S)[nH]c3c2CO1 (stereo unspecified)
→ 15.8 | 5.0

# Entries shown so far that have fluorine (17):
# Values run as follows: MgrA DNA FP | S aureus helic
2) CC1CC(=O)C2=C(C1)Nc1ncnn1C2c1cc(F)cc(F)c1 (stereo unspecified)
→ 7.2 | -7.0
6) O=C(O)CSCC(=O)Nc1ccc(Br)c(C(F)(F)F)c1
→ -0.7 | .
7) O=C(CCSCc1ccccc1F)N1CCN(c2cccc(Cl)c2)CC1
→ . | 8.0
16) O=C(Nc1ccccc1NS(=O)(=O)c1ccc(F)cc1)C1CCC1
→ 2.5 | -18.0
23) O=C(Nc1cccc(C(F)(F)F)c1)C1COc2ccccc2O1 (stereo unspecified)
→ 0.3 | .
24) Cc1[nH]n(C)c(=O)c1N=Nc1ccc(F)cc1
→ 1.1 | .
30) CCOC(=O)c1cc(/C(C)=N/NS(=O)(=O)c2cc(C(F)(F)F)cc(C(F)(F)F)c2)on1
→ . | 8.0
45) CC(=O)OC1CCN(c2ncc(C(F)(F)F)cc2Cl)CC1
→ 0.8 | .
61) FC(F)(F)c1nnc2sc(-c3cnccn3)nn12
→ . | -24.0
65) Fc1cccc(Cl)c1CNCc1c(F)cccc1Cl
→ 3.1 | .
72) Nc1cc(Cc2cc(N)cc(C(F)(F)F)c2)cc(C(F)(F)F)c1
→ -0.3 | .
80) Cc1cc(C)c(C(=O)C/C(=N/O)C(F)(F)F)c(=O)[nH]1
→ 0.4 | -16.0
82) N#Cc1ccc(NC(=O)c2ccc(OC(F)(F)F)cc2)cc1
→ -1.5 | .
86) CN1c2ccccc2C(=O)/C(=N\Nc2ccccc2F)S1(=O)=O
→ -0.6 | .
97) O=C(O)C1CC(=O)N(Cc2ccc(F)cc2)C1 (stereo unspecified)
→ -4.9 | 3.0
98) CCOC(=O)c1cc(C(O)(C(F)(F)F)C(F)(F)F)c(/N=C/N(C)C)o1
→ . | 8.0
104) Fc1ccc(-c2noc(-c3ccc4c(c3)CCO4)n2)cc1
→ . | -8.0
